GSK3 alpha inh = blocks human GSK-3 alpha kinase | P49840 | ADP-Glo luminescence, 60 min | inhibition, % at 10 µM | 320,000 compounds, 0.1% hits | AID 2650;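 in the data active = inhibition above about 50%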;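 note: GST-tagged GSK-3 alpha with peptide substrate and 25 µM ATP; 0% = DMSO neutral wells and 100% = GW8510 positive control wells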
Target sequence (P49840 whole entry, looked up): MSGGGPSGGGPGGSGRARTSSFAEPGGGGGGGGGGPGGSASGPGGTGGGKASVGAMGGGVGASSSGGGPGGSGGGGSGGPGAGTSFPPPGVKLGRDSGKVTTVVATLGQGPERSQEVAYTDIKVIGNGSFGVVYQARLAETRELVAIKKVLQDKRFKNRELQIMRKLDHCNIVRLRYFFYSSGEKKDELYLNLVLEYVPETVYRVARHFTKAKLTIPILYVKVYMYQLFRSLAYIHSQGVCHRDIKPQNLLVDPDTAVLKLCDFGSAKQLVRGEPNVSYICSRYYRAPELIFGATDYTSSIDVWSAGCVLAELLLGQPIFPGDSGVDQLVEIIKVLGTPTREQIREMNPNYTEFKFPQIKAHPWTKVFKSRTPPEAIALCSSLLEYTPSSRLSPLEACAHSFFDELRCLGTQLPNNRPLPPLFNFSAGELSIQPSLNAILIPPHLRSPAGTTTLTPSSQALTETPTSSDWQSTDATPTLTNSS
KLF5 inh = inhibitors of KLF5 expression | inhibition, % at 5 µM | DLD-1 KLF5 promoter-luciferase reporter, luminescence | 290,000 compounds, 0.23% hits;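 active = inhibition above a per-plate limit of that plate's mean compound inhibition plus 3 SD, cut at about 60% in these data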;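 note: 0% = DMSO wells and 100% = LY294002 at 200 µM; higher means less KLF5 promoter-driven luciferase light; inactives centre near -14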
Platelet DG rel = platelet dense granule release activity; AID 1663; 300,000 compounds, 0.22% hits; human platelet-rich plasma, SFLLRN dense granule ATP release, luminescence; inhibition, %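 (compounds screened at 7.5 µM in platelet-rich plasma)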;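 active = mean replicate score, as percent of positive control, at or above 50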
aSyn 5UTR inh = 5' untranslated region of α-synuclein, MLPCN primary screen; alpha-synuclein 5'UTR reporter, inhibitor activity; inhibition, % (tested at 7.5 µM); 300,000 compounds, 0.82% hits; AID 1813; in the data active = inhibition above about 60%;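 note: H4 neuroglioblastoma cells stably carrying SNCA 5'UTR luciferase fusion; 0% = DMSO wells and 100% = positive control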
HSF1 inhib = HSF1 inhibition | NIH3T3-HGL HSE-luciferase, MG132-induced, luminescence 8 h; active compounds read low | activity change, negative = inhibition, % at 7.5 µM (by protocol) | 300,000 compounds, 0.77% hits | AID 2098;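 active = more than half of replicate wells show activity change below -50%, luminescence cut by over half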;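 note: luciferase reports HSF-1 transcriptional activity via heat shock element; 0% = median of DMSO wells and -100% = zero luminescence signal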
GSK3beta inhib = human GSK3beta kinase inhibition; 300,000 compounds, 0.038% hits; P49841; activity score (negative = inhibition), % at 10 µM; GST-GSK3beta kinase, ADP-Glo luminescence, 60 min; active compounds read low;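 active = more than half of replicate wells score below -50%, meaning over 50% inhibition versus plate controls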;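 note: 0% = median DMSO wells and -100% = median GW8510 positive control wells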
Target sequence (P49841 whole entry, looked up): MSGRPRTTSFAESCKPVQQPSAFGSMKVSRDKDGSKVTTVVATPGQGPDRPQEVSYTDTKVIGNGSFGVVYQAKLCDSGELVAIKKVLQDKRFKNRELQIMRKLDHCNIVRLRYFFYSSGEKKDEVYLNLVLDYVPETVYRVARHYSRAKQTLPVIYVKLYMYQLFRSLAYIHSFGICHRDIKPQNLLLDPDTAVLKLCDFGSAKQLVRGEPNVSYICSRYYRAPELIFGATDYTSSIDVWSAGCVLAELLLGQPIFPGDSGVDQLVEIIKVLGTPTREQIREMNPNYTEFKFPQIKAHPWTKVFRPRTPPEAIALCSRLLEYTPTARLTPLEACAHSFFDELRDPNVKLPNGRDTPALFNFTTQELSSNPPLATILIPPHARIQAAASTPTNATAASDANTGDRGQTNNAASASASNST
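Assay system: GST-fused GSK3beta enzyme, cell-free / Medium: Tris pH 7.5 buffer with MgCl2, DTT, BSA, heparin / Also added: peptide substrate plus 25 µM ATP (final) / Compound: 10 µM single point / Timing: kinase reaction with compound 60 min at room temperature / Detection: ADP-Glo luminescence / Benchmarks: DMSO neutral wells and GW8510 at 20 µM as positive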
IEC-6 cytotox = kills IEC-6 intestinal cells in KLF5 counter-screen. IEC-6 cytotoxicity, luminescence viability. inhibition, % at 5 µM. 290,000 compounds, 0.78% hits. AID 1825; in the data active = inhibition above about 22%;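 note: 0% = plate median of test compound wells and 100% = cytotoxic reference compound wells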
HSF-1 act = increases HSF-1 driven luciferase reporter signal. NIH3T3-HGL HSF-1 luciferase reporter, MG132, 8 h; 100% = twice DMSO control signal. activation, % at 9 µM. 300,000 compounds, 1.7% hits. AID 504408;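 active = mean replicate activation of at least 50% with a set share of replicates each reaching 50%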;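 note: 0% = median of the neutral control wells and 100% = twice that signal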
HSP90 refold inh = blocks HSP90-mediated luciferase refolding in reticulocyte lysate; Rabbit reticulocyte lysate, luciferase refolding luminescence, 3 h; inhibition, % at 5.6 µM; 290,000 compounds, 0.91% hits; AID 1789;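 active = inhibition above the screen-wide mean plus 3 SD, computed separately per campaign, cut at about 16% in these data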;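 note: 0% = DMSO wells and 100% = 60 µM geldanamycin wells; inhibitors lower the luminescence because luciferase stays unfolded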
Numbers without * were called inactive; · = no result given. Only part of the results is shown; count on the stated rates, not on these rows.

SMILES	GSK3 alpha inh	KLF5 inh	Platelet DG rel	aSyn 5UTR inh	HSF1 inhib	GSK3beta inhib	IEC-6 cytotox	HSF-1 act	HSP90 refold inh
CCOC(=O)/C=c1\s/c(=C\c2ccc3c(c2)OCCO3)c(=O)n1CC(=O)NCC1CCCO1 (centres undefined)	-1	1	4	-17	-4	6	-1	0	1
COc1ccc(OC)c(NC(=O)CSc2nnc(N)s2)c1	1	-7	3	32	1	4	3	-1	2
COc1ccc(C(=O)Nc2nc3ccccc3[nH]2)cc1S(=O)(=O)N1CCCC1	10	-50	14	-43	5	3	-2	4	9
COc1ccccc1N1C(=O)C2CC=CC(C)C2C1=O (centres undefined)	-2	-16	-2	16	-1	1	-2	-7	4
COc1ccc(C2=NOC(Cn3nc(-c4ccccc4)cc3C(=O)O)C2)cc1 (centres undefined)	3	·	·	·	·	·	·	·	·
O=c1sc2ccccc2c(N2CCCCC2)c1[N+](=O)[O-]	-46	-20	1	4	-3	2	-2	-2	-2
CNC(=O)Nc1cccc(-c2cc(-c3c(Cl)cccc3Cl)no2)c1	2	-3	2	-2	11	4	5	14	6
CC(C)c1nc(N2CCN(C(=O)c3ccco3)CC2)c2c3c(sc2n1)CCCC3	0	-31	-3	12	15	1	-8	35	-1
Cc1cc(NC(=O)CSc2ccc3nnc(-c4ccccc4)n3n2)no1	1	-4	0	7	1	0	2	-1	10
O=C(CCS(=O)(=O)c1ccc(F)cc1)Nc1nc(-c2ccncc2)cs1	2	-29	-9	-11	18	1	1	32	3
Cn1c(CCNC(=O)c2ccccc2F)nnc1SCC(=O)Nc1nncs1	-1	6	10	-18	-4	·	-6	8	-2
O=C(Nc1cccc(C(F)(F)F)c1)NC1CCN(S(=O)(=O)c2ccc(F)cc2)CC1	-1	-4	-6	27	-27	-1	2	-26	4
CCOC(=O)c1cc(C(=O)OCC)c(=O)[nH]c1N1CCCC1	2	-33	11	-7	12	2	2	-5	-1
COCCn1c(=NC(=O)CSCC(=O)Nc2cc(C)on2)sc2cc(C(=O)OC)ccc21	3	-15	11	13	1	1	5	4	0
COc1ccc(S(=O)(=O)N2CCN(c3ccc4nnc(-c5ccccc5)n4n3)CC2)cc1	5	-13	-41	14	-2	-3	2	-8	1
CSc1nc2[nH]c3c(c2c2ncnn12)CCCC3	6	-16	4	12	0	0	4	-13	1
O=C(O)CSc1ncnc2sc3c(c12)CCC3	·	13	6	10	-13	4	3	-9	1
COCCn1c(=NC(=O)CSCC(=O)N2CCOCC2)sc2cc(C)ccc21	-3	-59	-7	-12	-3	0	-6	13	-3
Cc1cc(=O)[nH]c(Nc2cccc(Br)c2)n1	-1	-14	5	6	-17	3	4	-21	-4
COc1ccc(CCNC(=O)CSc2nc3[nH]ncc3c(=O)n2-c2ccc(C)c(Cl)c2)cc1OC	·	-27	3	29	3	-2	-3	-9	1
CCCNC(=O)COC(=O)c1cc(C)nc2ccccc12	-2	-18	8	6	-6	-1	-4	-4	2
CC(C)c1ccc(OCC(=O)NC(=S)Nc2ccc3c4c(cccc24)CC3)cc1	-3	-6	-5	-20	20	2	1	68*	-1
Oc1cccc(Nc2nc(-c3ccccc3Cl)nc3ccccc23)c1	-2	0	2	20	7	-6	1	22	-2
CC(C)Cc1c(O)nc(SCCN2CCOCC2)[nH]c1=O	2	5	1	-18	4	2	7	10	0
On1nnc2c3ccccc3c3ccccc3c21	21	-2	2	6	·	-1	-1	·	2

Part of the list above in order of formula weight, highest first.
SMILES	GSK3 alpha inh	KLF5 inh	Platelet DG rel	aSyn 5UTR inh	HSF1 inhib	GSK3beta inhib	IEC-6 cytotox	HSF-1 act	HSP90 refold inh
COc1ccc(S(=O)(=O)N2CCN(c3ccc4nnc(-c5ccccc5)n4n3)CC2)cc1	5	-13	-41	14	-2	-3	2	-8	1
COCCn1c(=NC(=O)CSCC(=O)N2CCOCC2)sc2cc(C)ccc21	-3	-59	-7	-12	-3	0	-6	13	-3
CC(C)c1ccc(OCC(=O)NC(=S)Nc2ccc3c4c(cccc24)CC3)cc1	-3	-6	-5	-20	20	2	1	68*	-1
Cc1cc(NC(=O)CSc2ccc3nnc(-c4ccccc4)n3n2)no1	1	-4	0	7	1	0	2	-1	10

HSF-1 act, what is marked active above
structure,GSK3 alpha inh,KLF5 inh,Platelet DG rel,aSyn 5UTR inh,HSF1 inhib,GSK3beta inhib,HSF-1 act,HSP90 refold inh
CC(C)c1ccc(OCC(=O)NC(=S)Nc2ccc3c4c(cccc24)CC3)cc1,-3,-6,-5,-20,20,2,68*,-1

Continuation.
SMILES	GSK3 alpha inh	KLF5 inh	Platelet DG rel	aSyn 5UTR inh	HSF1 inhib	GSK3beta inhib	IEC-6 cytotox	HSF-1 act	HSP90 refold inh
C/C(N)=C(/C#N)C(=O)CSc1nc2cc(Cl)ccc2c(=O)n1Cc1ccco1	-1	-42	-2	14	16	0	-8	22	-5
CSc1nc(Oc2ccccc2)c2sccc2n1	-4	6	8	45	-2	2	4	-9	0
CCc1ccc(NC(=S)Nc2ccc3cn[nH]c3c2)cc1	19	-14	1	-196	-12	0	-2	-20	5
CCOC(=O)N/N=C(/C)c1ccc([N+](=O)[O-])o1	-1	-22	1	22	-4	0	2	4	2
COc1ccc(-n2c(C)c3c(OC)cccc(=O)c3c2C)cc1	0	-11	2	14	·	-2	0	·	1
O=C(/C=C/c1ccccc1)NC(=S)Nc1ccc2c3c(cccc13)CC2	1	-11	-2	-38	1	3	-3	-2	-6
COc1cccc(N/C(SCc2cccc([N+](=O)[O-])c2)=C(/C#N)C(=O)NCc2cccs2)c1	3	-7	-39	-23	25	15	11	75*	3
O=C(O)/C=C/c1ccc2c(c1)OCCO2	-3	-1	18	-4	0	-4	0	1	14
C=CCn1c(CCNC(=O)c2ccccc2F)nnc1SCC(=O)Nc1ccc(OC)cc1	-2	4	-3	-21	0	-15	1	8	0
O=C1CCCC(O)=C1C=Nc1ccc2c(c1)oc1ccccc12	-3	-92	-52	-168	24	-1	-5	45	-1
O=C(c1ccccc1F)N1CCC(N2CCCCCC2)CC1	0	-4	-3	3	-6	1	3	0	1
O=C(O)CCCCCCCCCC(=O)c1cccs1	-3	-17	2	25	-7	-2	1	1	9
CCOC(=O)c1sc2c(c1C)c(=O)n(CCO)c(=O)n2Cc1ccccc1	0	-17	2	15	-1	-1	0	8	0
CCN(CC)C(=O)CSc1nc2cc(OC)c(OC)cc2c(=O)n1Cc1ccc(Cl)cc1	0	9	-5	42	-9	5	3	-16	-1
Cc1cc(C)nc(N2CCCC(C(=O)Nc3nc4ccc(S(C)(=O)=O)cc4s3)C2)n1 (centres undefined)	·	-17	-3	17	1	0	-1	-5	3
CCC(CO)Oc1cc(NC(=O)c2cccc3ccccc23)c2ncn(C(C)C)c2c1 (centres undefined)	-2	·	·	·	·	·	·	·	·
CCOc1ccc(Nc2nc(N)c([N+](=O)[O-])c(N3CCN(CC)CC3)n2)cc1	9	-36	-1	-25	5	-18	4	49	3
Cc1cccc(S(=O)(=O)NCCC(=O)OC(C)C(=O)NC(=O)NC2CCCCC2)c1 (centres undefined)	-3	-3	13	-17	21	0	-4	53*	0
CN(Cc1nc(-c2ccccn2)no1)S(=O)(=O)c1ccccc1	-1	-30	·	·	·	·	-6	·	-1
O=C(Nc1ncc2c(n1)-c1ccccc1CC2)c1ccccc1	1	-42	4	-32	-8	-1	6	11	-5
COc1ccc(OC)c(C2=Nn3c(nnc3-c3ccncc3)SC2)c1	-1	·	-3	33	-1	1	·	1	·
O=S(=O)(/C=C/c1ccccc1)N1CCN(c2ccccc2)CC1	-1	-38	10	-1	7	3	0	15	-3
COc1ccc(Br)c2oc(SC)cc(=O)c12	4	-13	9	-1	3	1	9	4	-1
O=c1[nH]n(CC2COC3(CCCCC3)O2)c(=O)c2ccccc12 (centres undefined)	4	-31	-7	-7	39	1	6	63*	-1
C/C(=N/NC(=O)c1ccco1)c1cccc(NC(=O)c2ccc(C)o2)c1	2	-119	8	-6	8	2	3	24	1
Additional structures
SMILES	GSK3 alpha inh	KLF5 inh	Platelet DG rel	aSyn 5UTR inh	HSF1 inhib	GSK3beta inhib	IEC-6 cytotox	HSF-1 act	HSP90 refold inh
c1ccc2[nH]c(NC3=NCCC3)nc2c1	-1	-32	-7	-29	1	-8	1	3	-3
CCc1nc(N2CCN(C(=O)c3ccco3)CC2)c2c3c(sc2n1)CCCC3	-1	-3	-2	22	-1	1	1	9	1
O=C(O)c1ccc(/C=C(\c2nc3ccccc3[nH]2)c2nc3ccccc3s2)cc1	-4	-24	0	-6	15	4	5	22	0
Cc1cc(C)c(C(=O)N2CCCC(CNC(=O)C3(c4ccc(Cl)cc4)CC3)C2)c(=O)[nH]1 (centres undefined)	-1	-7	3	-3	-8	3	6	1	-2
COc1c(F)c(F)c(C(=O)Nc2cccc(Cl)c2N2CCOCC2)c(F)c1F	-1	2	7	7	12	0	-1	15	4
CN(Cc1ccccc1)c1ccc2nnc(-c3ccccc3)n2n1	6	1	-27	20	-16	-10	-5	-18	5
Cc1cc(C)c(S(=O)(=O)n2cc(C(C)C(N)C(=O)O)c3ccccc32)c(C)c1 (centres undefined)	-3	·	0	5	-6	-4	·	0	·

Exported with two lines to a compound: entries from further up
Values run as follows: GSK3 alpha inh, KLF5 inh, Platelet DG rel, aSyn 5UTR inh, HSF1 inhib, GSK3beta inhib, IEC-6 cytotox, HSF-1 act, HSP90 refold inh
> c1ccc2[nH]c(NC3=NCCC3)nc2c1
    -1, -32, -7, -29, 1, -8, 1, 3, -3
> CCc1nc(N2CCN(C(=O)c3ccco3)CC2)c2c3c(sc2n1)CCCC3
    -1, -3, -2, 22, -1, 1, 1, 9, 1
> O=C(O)c1ccc(/C=C(\c2nc3ccccc3[nH]2)c2nc3ccccc3s2)cc1
    -4, -24, 0, -6, 15, 4, 5, 22, 0

Pulled by structure from the list above, 5 records:
SMILES	GSK3 alpha inh	KLF5 inh	Platelet DG rel	aSyn 5UTR inh	HSF1 inhib	GSK3beta inhib	IEC-6 cytotox	HSF-1 act	HSP90 refold inh
On1nnc2c3ccccc3c3ccccc3c21	21	-2	2	6	·	-1	-1	·	2
CCc1nc(N2CCN(C(=O)c3ccco3)CC2)c2c3c(sc2n1)CCCC3	-1	-3	-2	22	-1	1	1	9	1
O=C(Nc1ncc2c(n1)-c1ccccc1CC2)c1ccccc1	1	-42	4	-32	-8	-1	6	11	-5
Cc1cccc(S(=O)(=O)NCCC(=O)OC(C)C(=O)NC(=O)NC2CCCCC2)c1 (centres undefined)	-3	-3	13	-17	21	0	-4	53*	0
COc1c(F)c(F)c(C(=O)Nc2cccc(Cl)c2N2CCOCC2)c(F)c1F	-1	2	7	7	12	0	-1	15	4

Compound activity as filed in PubChem BioAssay.
